Screening results as filed in PubChem BioAssay.
RN4220 kill: S. aureus RN4220 growth inhibition | inhibition, % (concentration not given with the values) | actives 0.33% (n = 330,000) | OD600, 16 h | AID 1259311;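 active = z-score of -3 or lower and OD600 up to 0.18 on both plates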;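 also: plate controls were untreated cells for no effect and reference antibiotic for full effect; stock transfer was 100 nL into about 80 µL; one replicate is shown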
Autofluor counter: counter-screen for toxin protease inhibitors: compound fluorescence. compound autofluorescence counterscreen, microsphere flow cytometry; stronger effect = higher value. fluorescence intensity (concentration not given with the values). actives 3.1% (n = 360,000);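 active = at least 3 SD above the mean of all compounds, about 16000 in these data; inconclusive = too few beads counted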;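 also: 100 nL of 1 mM stock went into each well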
BJeLR lethal: kills HRASV12-expressing BJeLR cells | BJeLR (HRASV12) viability, CellTiter-Glo ATP luminescence, 48 h; reference of the scale not given here | inhibition, % (no concentration beside the values) | actives 0.17% (n = 300,000);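 active = replicate mean above 50%; inconclusive = above 50% but judged a plate artefact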;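 also: 50 nL library stock added to about 25 µL; numbers are from one replicate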
ugtP null kill: compounds lethal to S. aureus RN4220 ugtP deletion mutant; AID 1259309; OD600 growth, 16 h; some inactives read as strong as hits; growth inhibition, % (concentration not given with the values); actives 0.54% (n = 330,000);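 active = z-score under -3 and OD600 up to 0.15 on both plates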;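 also: plate controls were untreated wells for no effect and antibiotic for full effect; wells of about 80 µL received 100 nL stock; the first replicate is given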
PrP UTR inh: suppresses PrP 5' UTR mRNA reporter expression | cell-based PrP 5' UTR mRNA reporter, plate reader | inhibition, % (concentration not given with the values) | actives 0.35% (n = 340,000) | AID 488862;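 active = every replicate at 50% or more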;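 also: 0 = median of the neutral control wells; tested in H4 reporter cells; numbers are from one replicate; inactives centre near -14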
Mtb hypoxia inh: reduces hypoxia-regulated biosensor signal in M. tuberculosis; fluorescence inhibition, % (test concentration not listed); AID 1159583; actives 0.1% (n = 300,000); M. tuberculosis hypoxia-regulated fluorescent reporter, fluorescence;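 active = 35 to 45% if threefold the growth effect, above 45% if 1.5-fold the growth effect; inactive = the rest, general growth blockers included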;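 also: wells of about 50 µL received 100 nL stock; 0% = vehicle wells and 100% = reference inhibitor wells; whole bacteria with a GFP reporter of the hypoxia response; strong numbers were not always called active; many hits fall short of the cut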
Mtb hypoxia inh growth: second read-out of Mtb hypoxia inh, no call of its own (marks repeat the call); growth inhibition, %; measured here: M. tuberculosis growth (absorbance);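 0% = vehicle and 100% = reference antibiotic; read after six days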
* = called active by the depositor; ? = inconclusive; / = no result given.

1) CCCN(Cc1nnc(-c2ccccc2Cl)o1)C(=O)c1oc2ccccc2c1C
2) COCC(=O)Nc1c(C(=O)N2CCCC2)oc2ccccc12
3) NNc1nc(-c2ccccc2)cc(-c2ccc(Br)cc2)n1
4) OCCc1ccc(O)c(-n2nc3ccccc3n2)c1
5) COCCNC(=O)CSc1nccn1Cc1ccc2c(c1)OCO2
6) Cn1ncc(Cl)c1C(=O)N1CCN(c2ccccc2)CC1
7) CC(=O)Nc1cccc(-c2nnc(-c3ccccc3)o2)c1
8) Cc1[nH]n(-c2ccccc2)c(=O)c1C=Nc1ccc(S(=O)(=O)Nc2nccs2)cc1
Compound	1	2	3	4	5	6	7	8
RN4220 kill	2.0	0.1	10	4.0	9.9	2.6	-0.2	6.5
Autofluor counter	5894	3407	3036	5938	4923	6055	4620	2386
BJeLR lethal	4	3	0	10	-5	8	-1	3
ugtP null kill	3	-2	17	0	9	-9	-15	58
PrP UTR inh	-10	-1	-10	-69	-16	-13	-67	-12
Mtb hypoxia inh	-1	-6	-1	-1	-7	15	-78	/
Mtb hypoxia inh growth	9	-10	2	-1	-2	10	-19	/

9) CCCC(=O)Nc1cccc(-c2cn3ccsc3n2)c1
10) O=C1CC(=C(c2ccccc2)c2ccccc2)C(=O)N1CCCN1CCN(c2cccc(Cl)c2)CC1
11) CCCCOc1ccc(NC(=O)CSc2nnnn2C)cc1
12) N#CCCn1cc(C(=O)Nc2ccccc2Cl)c(-c2ccc(F)cc2)n1
13) CCn1c(/N=C/c2ccccc2O)nc2ccccc21
14) Cc1ccccc1CS(=O)(=O)Cc1ccc(C(=O)NCC2CCCO2)o1 (stereo not drawn)
15) O=C1CC(c2ccccc2)c2cc(O)ccc2O1 (stereo not drawn)
16) O=C(NCC1COc2ccccc2O1)c1ccc(Cl)c(S(=O)(=O)N2CCOCC2)c1 (stereo not drawn)
Compound	9	10	11	12	13	14	15	16
RN4220 kill	2.3	-19	-2.6	6.9	/	2.0	5.8	-3.8
Autofluor counter	2802	3076	8049	3816	3364	2569	7318	3733
BJeLR lethal	2	-4	-2	-8	-10	7	7	/
ugtP null kill	0	25	7	9	/	0	-6	-9
PrP UTR inh	-42	-13	-16	-10	-10	-9	-8	-17
Mtb hypoxia inh	7	8	6	18	/	-3	9	-16
Mtb hypoxia inh growth	6	9	-1	5	/	1	2	-1

17) CC1=C(C(=O)Nc2ccc(C)cc2C)C(c2ccc([N+](=O)[O-])cc2)n2ncnc2N1 (stereo not drawn)
18) O=C(NCc1ccccc1)c1ccc(Cl)cc1[N+](=O)[O-]
19) OC(CSc1c(Cl)cccc1Cl)CN1CCN(c2ccc(F)cc2)CC1 (stereo not drawn)
20) O=C(c1ccc(Oc2ccc(C(F)(F)F)cc2[N+](=O)[O-])cc1)N1CCOCC1
21) CCOC(=O)Cn1c(S(=O)(=O)Cc2ccc(Cl)cc2)nc(-c2ccccc2)c1-c1ccccc1
22) O=C(CSc1ccccn1)Nc1ccc(Cl)c([N+](=O)[O-])c1
23) O=C1S/C(=C/c2ccccc2)C(=O)N1CC(O)Cn1c2ccccc2c2ccccc21 (stereo not drawn)
24) Cc1cc(N2CCCCC2)n2ncc(-c3ccccc3)c2n1
Compound	17	18	19	20	21	22	23	24
RN4220 kill	7.0	2.8	4.2	4.8	0.5	-0.2	-8.5	-6.4
Autofluor counter	3582	4603	15573	2547	5879	3262	2264	2148
BJeLR lethal	-7	-5	5	9	0	-13	-2	-1
ugtP null kill	4	-2	5	5	4	6	-22	8
PrP UTR inh	-17	-9	-2	-3	3	-7	7	-4
Mtb hypoxia inh	5	4	7	1	-4	18	3	/
Mtb hypoxia inh growth	3	13	-7	8	5	9	3	/

25) COc1ccc(S(=O)(=O)Nc2c(C)nn(C)c2C)cc1Br
26) COc1ccc2sc(C)[n+](C)c2c1
27) CCOc1ccc(NC(=O)NNC(=O)C2CCC(C(C)(C)C)CC2)cc1 (stereo not drawn)
28) Cc1ccc(-c2nnn(CC(=O)N(CCCO)C(C(=O)NC3CCCC3)c3ccc(Cl)cc3)n2)o1 (stereo not drawn)
29) CN(C)NC(=S)Nc1cccc(C(F)(F)F)c1
30) CC(C)CC(NC(=O)CC12CC3CC(CC(C3)C1)C2)C(=O)NC1=NCCS1 (stereo not drawn)
31) COc1cccc2c1OCCC2=NNC(=O)COc1ccccc1C
32) CC(C)OC(=O)n1c(=S)oc2ccccc21
Compound	25	26	27	28	29	30	31	32
RN4220 kill	3.2	/	1.8	0.8	1.2	-1.4	4.4	25
Autofluor counter	3685	4153	3229	6293	3972	4172	/	4188
BJeLR lethal	/	-2	/	-5	2	4	/	-2
ugtP null kill	2	/	5	-1	2	-5	5	84
PrP UTR inh	-2	-31	-25	-7	-14	-14	/	-15
Mtb hypoxia inh	2	/	9	1	1	-4	4	9
Mtb hypoxia inh growth	6	/	9	-5	-1	-4	2	4

33) Cc1ccccc1-n1c(SCC(=O)NN=Cc2ccccc2OCC(=O)O)nc2ccccc2c1=O
34) CSCC[C@@H](C(=O)O)N1Cc2ccccc2C1=O
35) CNC(=O)NC(=O)Cn1cnc2sc(-c3ccccc3)cc2c1=O
36) CN(c1ccc(F)cc1)S(=O)(=O)c1ccc(Cl)c(C(=O)NCC2(N3CCOCC3)CCCCC2)c1
37) CCOC(=O)c1nnn(-c2nonc2N)c1C
38) CC(C)C(=O)Nc1c2c(nn1-c1ccc(F)cc1)CS(=O)(=O)C2
39) COCC(=O)Nc1cc(C(=O)NCCc2ccccc2)ccc1Cl
40) O=C(CCCCCNC(=S)Nc1ccccc1)C[N+](=O)[O-]
Compound	33	34	35	36	37	38	39	40
RN4220 kill	3.5	19	-4.4	1.7	6.6	3.5	-5.0	0.8
Autofluor counter	/	5817	5777	3516	7183	3428	11092	2271
BJeLR lethal	/	4	2	/	-2	0	-5	-5
ugtP null kill	14	16	3	8	6	4	-2	14
PrP UTR inh	/	-17	/	-28	-27	-16	-32	-10
Mtb hypoxia inh	0	2	2	9	6	5	-3	0
Mtb hypoxia inh growth	2	-3	-4	7	5	-19	2	12

41) O=[N+]([O-])c1cc2c(cc1C=NNS(=O)(=O)c1ccccc1)OCO2
42) CC(=O)c1c(N2CCOCC2)[nH]c(-c2ccccc2)nc1=S
43) COc1ccccc1-c1nnc(C2CCN(S(=O)(=O)c3ccccc3[N+](=O)[O-])CC2)o1
44) O=C(CCSc1nnc(-c2ccco2)o1)N1CCOCC1
45) CCOc1ccc2nc(N(CCN(CC)CC)C(=O)/C=C/c3cccs3)sc2c1
46) COc1ccc(OC)c(CN2CCC(C(=O)N3CCN(c4ccccc4F)CC3)CC2)c1
47) COC(=O)c1ccccc1NC(=S)NC(=O)c1ccc(C)cc1
48) N#CC(=NNc1ccc(Cl)c(Cl)c1)C(=O)C1CC1
Compound	41	42	43	44	45	46	47	48
RN4220 kill	6.6	-1.5	1.6	8.0	1.0	3.7	5.2	77
Autofluor counter	/	2460	5462	4215	5123	1924	2123	/
BJeLR lethal	/	-7	-8	5	4	-4	-17	/
ugtP null kill	3	11	3	3	16	5	4	69
PrP UTR inh	/	-8	-13	-19	8	18	-10	/
Mtb hypoxia inh	1	-1	6	-1	14	/	9	9
Mtb hypoxia inh growth	4	1	1	0	14	/	-1	13

49) CC(C)CCNC(=O)C(c1ccncc1)N(CC1CCCO1)C(=O)Cn1nnc(-c2ccc(F)cc2)n1 (stereo not drawn)
50) CC1=C(C(=O)Nc2ccccc2)C(c2ccco2)C(C#N)=C(SCc2ccccc2)N1 (stereo not drawn)
51) COc1cccc(CC2(CO)CCN(Cc3cnc(-c4cccc(C)c4)nc3)CC2)c1
52) CC(C)C(NC(=O)c1ccco1)C(=O)NCc1ccc(C(=O)O)cc1 (stereo not drawn)
53) COc1ccc(NS(=O)(=O)c2ccc(C)c(C(=O)NCC(c3ccco3)N3CCCCC3)c2)cc1 (stereo not drawn)
54) Cn1cccc1C(=O)C(=O)Nc1ccc(F)c(F)c1
55) CCn1c(O)c(/C=C2\C=Nc3ccccc32)sc1=Nc1ccccc1
56) COc1ccc(CCNC(=O)CN(c2ccccc2)S(C)(=O)=O)cc1
Compound	49	50	51	52	53	54	55	56
RN4220 kill	5.5	2.5	6.7	1.1	4.3	11	1.8	2.0
Autofluor counter	2045	/	4704	5852	?	4381	5583	4044
BJeLR lethal	-1	-4	3	-1	4	6	-9	3
ugtP null kill	6	5	-5	5	6	8	-6	1
PrP UTR inh	-10	/	-25	-21	-9	-75	-21	-22
Mtb hypoxia inh	-10	/	-4	-1	0	1	6	3
Mtb hypoxia inh growth	-6	/	0	12	0	6	-12	-3

Some values from above:
PrP UTR inh, COc1cccc(CC2(CO)CCN(Cc3cnc(-c4cccc(C)c4)nc3)CC2)c1 → -25
BJeLR lethal, CC1=C(C(=O)Nc2ccccc2)C(c2ccco2)C(C#N)=C(SCc2ccccc2)N1 (stereo not drawn) → -4
ugtP null kill, CC(C)C(NC(=O)c1ccco1)C(=O)NCc1ccc(C(=O)O)cc1 (stereo not drawn) → 5
RN4220 kill, CCn1c(O)c(/C=C2\C=Nc3ccccc32)sc1=Nc1ccccc1 → 1.8
Mtb hypoxia inh, CC(C)CCNC(=O)C(c1ccncc1)N(CC1CCCO1)C(=O)Cn1nnc(-c2ccc(F)cc2)n1 (stereo not drawn) → -10
BJeLR lethal, COc1ccc(NS(=O)(=O)c2ccc(C)c(C(=O)NCC(c3ccco3)N3CCCCC3)c2)cc1 (stereo not drawn) → 4

Other results
57) Cc1ccc(O)c(C2=Nc3ccccc3N=C(c3cccc([N+](=O)[O-])c3)C2)c1
58) Cc1cc2nc(-c3cc(N4CCOCC4)ccc3[N+](=O)[O-])ccn2n1
59) CN(C)/C=C/C(=O)c1cnc(-c2ccccn2)s1
60) O=C(COC(=O)c1ccc(CO)cc1)c1ccc(S(=O)(=O)N2CCCCC2)cc1
61) Cn1c(SCC(=O)NNC(=S)Nc2ccccc2)nnc1-c1ccncc1
62) CCC(CC)C(=O)NCCCCc1ccccc1
63) CC(C)[C@H]1COC(NC2=N[C@@H](C(C)C)CO2)=N1
64) CC1c2ccccc2N(S(=O)(=O)c2ccccc2)C1C (stereo not drawn)
Compound	57	58	59	60	61	62	63	64
RN4220 kill	-2.5	7.3	2.4	2.9	-1.0	2.4	/	7.0
Autofluor counter	2512	3705	4285	/	/	2020	3975	3652
BJeLR lethal	-6	-12	1	/	-3	4	2	/
ugtP null kill	-9	4	5	-1	-3	5	/	2
PrP UTR inh	-4	-11	-37	-13	/	-3	-65	-7
Mtb hypoxia inh	10	-2	8	9	-9	14	/	16
Mtb hypoxia inh growth	3	5	4	8	-4	3	/	14

Full records as entered above:
`CC1c2ccccc2N(S(=O)(=O)c2ccccc2)C1C` (stereo not drawn) is listed as RN4220 kill = 7.0; Autofluor counter = 3652; BJeLR lethal = /; ugtP null kill = 2; PrP UTR inh = -7; Mtb hypoxia inh = 16; Mtb hypoxia inh growth = 14
`CC(C)[C@H]1COC(NC2=N[C@@H](C(C)C)CO2)=N1` is listed as RN4220 kill = /; Autofluor counter = 3975; BJeLR lethal = 2; ugtP null kill = /; PrP UTR inh = -65; Mtb hypoxia inh = /; Mtb hypoxia inh growth = /

Carrying on:
65) O=C(c1ccc(F)cc1)N1CCC(O)(c2cccnc2)CC1
66) CCN(CC)c1ccc(NC(=S)NC(=O)c2cccs2)cc1
67) CCCC(NC(=O)CCl)c1ccccc1 (stereo not drawn)
68) O=C(CCN1C(=O)C2C3C=CC(C3)C2C1=O)Nc1ccccn1 (stereo not drawn)
69) Cc1ccc(S(=O)(=O)NCC(c2ccco2)N2CCc3ccccc32)cc1 (stereo not drawn)
70) O=S1(=O)CCC(NC(=S)SCCOc2ccccc2)C1 (stereo not drawn)
71) Cc1noc(C)c1COC(=O)Cn1c(C)nc2ccccc21
72) COc1ccc(OC)c(CCNC(=O)CCc2nnc3ccc(N4CCCC4)nn23)c1
73) CC(C)(C)CN1CCNC(=O)C1CC(=O)NCc1cccc(-n2cccn2)c1 (stereo not drawn)
74) Cc1cccc(N2C(=O)SC(SC(=Nc3ccccc3)Nc3ccccc3)C2=O)c1 (stereo not drawn)
Compound	65	66	67	68	69	70	71	72	73	74
RN4220 kill	0.0	26	3.8	3.1	3.9	-0.3	-0.5	3.0	-7.3	15
Autofluor counter	?	4364	2052	9160	4834	3423	3462	5927	4879	1939
BJeLR lethal	-2	3	1	0	1	-6	4	-13	1	-3
ugtP null kill	1	-2	10	1	15	9	5	2	-5	6
PrP UTR inh	-7	-55	-32	-21	-24	-34	-16	-3	-4	-13
Mtb hypoxia inh	/	13	18	18	5	8	/	-3	-2	8
Mtb hypoxia inh growth	/	1	11	3	10	10	/	-4	0	0
